Source: PubChem BioAssay (several laboratories)
RanGTP-Impb inh: inhibitors of RanGTP-importin-beta interaction, primary screen, biochemical, FRET, CFP-Ran, YFP-importin-beta, homogeneous; hit rate 1.1% among 300,000; AID 2216; cell-free CFP-Ran/YFP-importin-beta FRET ratio; inhibition, % (concentration not given with the values);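 active = most replicates above 15%; inconclusive = exactly half above 15%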;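 also: 0% = DMSO wells and 100% = Ran loaded with GDP instead of GTP; wells of about 40 µL received 100 nL stock; the first replicate is given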
Calb FLC: C. albicans growth modulation with fluconazole; C. albicans CaCi-2 (fluconazole-resistant clinical isolate) + fluconazole, Alamar Blue growth, 48 h; growth inhibition, % (no concentration beside the values); hit rate 0.57% among 300,000; AID 1979;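 active = most replicates above 75%; inconclusive = exactly half above 75%; inactive = most below 75%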;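 also: all wells also contain fluconazole at 8 µg/ml as a sub-toxic cotreatment; 0% = median of DMSO wells and 100% = median of geldanamycin control wells; wells of about 8 µL received 7.5 nL stock; the first replicate is given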
Vif TR-FRET: inhibitors of Vif binding to APOBEC3G peptide, primary screen, biochemical, TR-FRET, GST-Vif 1-94, biotin-A3G peptide, dose response retest (AID 1117319) | TR-FRET GST-Vif / biotin-A3G peptide binding; higher % means a stronger effect; test concentration not given here; strong numbers were not always called active | inhibition, %, or IC50 in µM where a hit was titrated | hit rate 0.57% among 260,000;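 active = above the screen mean plus three standard deviations and confirmed in dose response; inconclusive = results disagree or hit not tested in dose response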;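 also: Vif residues 1-94 fused to GST binding biotinylated APOBEC3G peptide 110-148; 0% = full assay without inhibitor and 100% = GST in place of GST-Vif; retest series ran down from 100 µM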
MLL AF4-AF9 inh: MLL-AF4/AF9 protein interaction inhibition; P42568; AlphaScreen, biotin-AF4 peptide binding to FLAG-AF9; inhibition, % at 10 µM; hit rate 0.47% among 350,000;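 active = every replicate reaching a set inhibition limit, whatever the replicate mean, cut at about 25% in these data; inconclusive = mean inhibition reaches that limit but some replicates miss it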;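 also: 0% = plate neutral control median and 100% = total signal loss; the record names both 10 and 1 µM as test concentration; the first replicate is given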
Target sequence (P42568 whole entry, looked up): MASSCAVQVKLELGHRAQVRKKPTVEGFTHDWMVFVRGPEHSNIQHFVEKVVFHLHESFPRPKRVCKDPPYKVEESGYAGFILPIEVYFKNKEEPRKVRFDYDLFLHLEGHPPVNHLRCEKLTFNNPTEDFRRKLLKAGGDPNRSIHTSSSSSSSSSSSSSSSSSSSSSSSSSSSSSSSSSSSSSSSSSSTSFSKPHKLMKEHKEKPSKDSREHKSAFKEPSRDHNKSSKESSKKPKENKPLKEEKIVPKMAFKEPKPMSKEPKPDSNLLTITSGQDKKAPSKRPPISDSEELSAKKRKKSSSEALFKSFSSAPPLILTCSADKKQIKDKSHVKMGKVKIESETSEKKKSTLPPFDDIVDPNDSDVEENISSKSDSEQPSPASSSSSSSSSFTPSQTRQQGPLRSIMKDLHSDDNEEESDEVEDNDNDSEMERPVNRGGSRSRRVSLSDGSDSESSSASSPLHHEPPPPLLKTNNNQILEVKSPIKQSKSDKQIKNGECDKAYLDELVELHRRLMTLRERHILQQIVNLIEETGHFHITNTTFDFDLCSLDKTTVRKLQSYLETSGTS
Bfl-1 A1 inh: inhibitors of the anti-apoptotic protein A1, read as caspase activation; MEF A1-2A-BIM cells, Caspase-Glo 3/7 luminescence, 3 h; percent of clofoctol response, vehicle zero; AID 2462; hit rate 0.066% among 330,000; caspase activation, % (test concentration not listed);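 active = over half of replicate activation scores above 10%, or exactly half above 10 with the replicate mean above 10; inconclusive = replicate mean below 10 yet half the replicates above 10; inactive = over half of replicates below 10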;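 also: wells of about 30 µL received 50 nL stock; many hits fall short of the cut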
LANA-H2A inh: blocks KSHV LANA binding to histone H2A/H2B. hit rate 0.6% among 320,000. AID 2629. cell-free LANA-H2A/H2B peptide, fluorescence polarization. inhibition, % (concentration not given with the values). Q9QR71; in the data active = inhibition mostly above about 10%, no sharp cut-off; inactive = mostly below about 6.7%;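 also: stock transfer was 7.5 nL into about 10 µL; 0% = median of vehicle wells and 100% = median of positive control wells; one replicate is shown; the record names a cut of 25% in any replicate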
Beta cell apopt: blocks beta cell apoptosis. INS-1E cytokine-induced death, ATP luminescence, 48 h; percent of positive-control rescue, neutral wells zero. protection from apoptosis, % (concentration not given with the values). hit rate 0.8% among 300,000;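 active = all replicates at 75% or more, or half of them and the mean; inconclusive = half reach 75% but not the mean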;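 also: 0% = cytokine-treated negative control wells and 100% = positive control rescue; higher means more ATP so stronger rescue from cytokine killing; wells of about 40 µL received 100 nL stock; the first replicate is given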
T cruzi inh: blocks replication of Trypanosoma cruzi | T. cruzi beta-gal in NIH3T3, luminescence, 90 h | inhibition, % (no concentration beside the values) | hit rate 1.4% among 300,000;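 active = mean inhibition across valid replicates above about 55%, limit read from the data; inconclusive = mean below that limit but half or more replicates reach it; inactive = mean below it, under half of replicates reach it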;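 also: signal also drops with host cell toxicity which is not excluded here; 0% = plate median of DMSO wells and 100% = zero luminescence signal; higher percent means less beta-gal luminescence so fewer parasites; stock transfer was 50 nL into about 50 µL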
* = called active by the depositor; u = inconclusive; x = no result given; & = joins results of further samples. The order is random; 4.3% or so of the library scored in one or more.

SMILES	RanGTP-Impb inh	Calb FLC	Vif TR-FRET	MLL AF4-AF9 inh	Bfl-1 A1 inh	LANA-H2A inh	Beta cell apopt	T cruzi inh
COc1cccc(NC(=O)CN(C)C(=O)c2ccc(N3CCCCC3)c([N+](=O)[O-])c2)c1	x	x	-2%	-1.0	0.6	-8.5	-5	x
CC(=O)N(CC1CCCO1)C1(C(=O)NC2CCCC2)CCCCC1 (stereo not given)	-1.5	4	2%	x	-0.1	1.9	-8	-1
CCC(c1nnnn1C1CCCCC1)N1CCN(C(=O)c2ccco2)CC1 (stereo not given)	0.7	-5	2%	0.6	0.0	1.1	-5	-5
CCCN(CCC)CC(O)COc1ccc2c(c1)OCO2 (stereo not given)	4.2	-9	-14%	-0.1	1.0	3.3	0	-12
COc1ccc(/C=C(/C#N)C(=O)Nc2cc(C)ccc2C)cc1C(=O)O	-2.5	-2	u	x	-1.5	-2.2	-5	-8
O=C1NC[C@H](c2ccccc2)OC(=O)[C@H](Cc2ccc(F)cc2)CC/C=C/C[C@H]1CC(=O)N(CCO)Cc1ccccc1	x	x	x	-2.4	-1.2	1.6	2	x
O=C(CCCCCNC(=O)N1CCn2c1nc1ccccc12)N[C@@H](Cc1ccccc1)C(=O)O	2.0	-8	x	-0.4	-0.1	0.7	-1	-17
CS(=O)(=O)N(CC(=O)N1CCOCC1)c1ccc(Cl)cc1	3.8	3	x	-3.1	-0.8	10	-2	-2
O=C(Nc1nn(Cc2ccc(Cl)cc2)cc1Br)c1ccc(COc2ccccc2Cl)o1	0.1	-8	u	x	0.5	0.6	1	31
Cc1ccc(Oc2ncccc2NC(=O)CC2(CC(=O)O)CCCC2)c2c1CCC2	0.4	14	-10%	-7.5	-0.4	0.9	-9	-14
COc1ccc(NC(=O)C2C3C=CC(C3)C2C(=O)NCc2ccco2)c(OC)c1 (stereo not given)	0.6	-7	4%	x	1.6	-7.6	4	x
COc1ccc(/C=N/N=C(\N)c2nonc2N)cc1	u	-4	2%	4.7	x	x	x	-1
CCN1C(C)=C(C)S/C1=C1\SC(=S)N(NC(C)=O)C1=O	-0.7	2	-1%	-0.8	-0.1	-3.4	0	2
COc1ccc(/C=N/Nc2nnc(Cc3ccc(OC)c(OC)c3)c(=O)[nH]2)cc1	-3.9	7	x	x	0.7	14	5	4
COCc1cc(C)nc(N/N=C/c2ccc(-c3ccc(C(=O)O)c(Cl)c3)o2)c1C#N	3.7	-1	u	x	-0.1	1.0	x	19
Cc1ccc(NC(=O)N(C2CCCCC2)C(C)c2cccnc2)cc1C (stereo not given)	3.0	-12	4%	0.6	0.4	0.4	-5	29
CCCc1ccc(OCC(=O)NNC(=S)NC(=O)c2ccco2)cc1	0.3	-24	7%	x	-0.4	-2.2	x	0
CC(C)CC(NC(=O)/C(=C\c1ccco1)NC(=O)c1ccco1)C(=O)O (stereo not given)	8.6	4	x	1.5	0.3	3.3	0	-10
CCCCC(=O)N(c1ccc(C)c(C)c1)C1C=CS(=O)(=O)C1 (stereo not given)	-4.2	-1	1%	x	-0.1	5.7	-5	2
O=C(CCc1nnc(COc2ccccc2)o1)NCc1ccccc1	-3.6	4	2%	1.8	-1.7	-3.0	-4	10
O=C(COC(=O)Cc1cccs1)NCC(=O)Nc1ccc(F)cc1	x	x	-9%	-1.1	-1.2	-3.0	3	x
CC(=O)N1CCCc2cc(S(=O)(=O)N3CCCC(C(=O)NCc4ccc(Cl)cc4)C3)ccc21 (stereo not given)	-0.6	-28	x	0.2	0.5	-0.3	4	-1
Cn1c(=O)[nH]c(=O)c2c1nc(N1CCCCCC1)n2CCSc1nc2ccccc2[nH]1	0.3	-1	6%	x	0.0	5.1	0	5
COc1cccc2cc(-c3nnc(SCC(=O)Nc4ccc(NC(C)=O)cc4)n3C)oc12	6.8	-1	x	1.9	-0.8	-0.2	-3	-3
CCOc1ccccc1N1CCN(C(=O)c2ccccc2OCc2c(C)noc2C)CC1	x	x	1%	-1.8	0.0	-1.2	-3	x
O=C(NCCN1CCOCC1)c1cccn2c(=O)c3c4c(sc3nc12)CCCC4	-7.2	-1	-7%	x	-0.1	0.2	-11	22
CC(=O)NCCC(=O)Nc1cc(S(=O)(=O)N2CCCCC2)ccc1N1CCN(C)CC1	1.3	5	0%	6.3	0.2	-5.3	-1	76*
C=CCNC(=S)NNC(=O)CCC(O)COCCC(C)C (stereo not given)	-3.1	-4	9%	-3.1	1.1	4.0	3	-7
COc1ccc(N2CCN(CCNC(=O)CCS(=O)(=O)c3cccc4nsnc34)CC2)cc1	5.3	45	u	x	0.1	1.1	12	0
COC(=O)c1ccccc1OCCOc1ccccc1C(=O)OC	u	2	1%	x	2.4	1.7	x	-11
COc1ccccc1Cn1c(=S)[nH]c2cc(C(=O)NCC(OC)OC)ccc2c1=O	-9.3	-6	-1%	-0.6	0.7	-0.9	3	4
CSc1ccc(Cc2ccc(Cl)cc2Cl)nn1	-2.7	22	-3%	x	-0.1	-1.4	-8	10
CN(C(=O)c1ccccc1Br)C1CCS(=O)(=O)C1 (stereo not given)	-9.0	-3	-2%	-25	2.6	-2.4	-6	-3
COc1ccc(NC(=O)c2cc3c(=O)n(C)c4ccccc4c3s2)cc1OC	-0.8	-15	-5%	x	-0.9	-3.9	1	-17
O=C1CCCN1CCC(=O)N1CCCC(N2CCN(c3ccccc3F)CC2)C1 (stereo not given)	1.4	-3	x	-0.4	0.2	1.7	-3	-9
CCC(=O)N1CCN(c2ccc(NC(=O)c3cc4ccccc4o3)cc2Cl)CC1	-3.1	67	-2%	x	-1.5	-0.5	32	5
COc1ccc2nc(Nc3nc4ccc(NC(C)=O)cc4s3)sc2c1	u	3	x	-3.3	-0.8	3.5	28	20
Cc1cc(C)c2c(c1)c1nnc(SCCN3CCOCC3)nc1n2C	-2.0	6	0%	1.3	x	x	x	20
Cc1cccc(OC(=O)c2sc(Cl)nc2C)c1	2.5	2	3%	x	1.6	5.6	-12	6
CC(NC(=O)COC(=O)c1c[nH]c2ccccc12)c1ccccc1 (stereo not given)	x	x	13%	5.5	0.8	1.3	-8	x
NC(=O)c1cc(NC(=O)CCCc2nc3ccccc3s2)cc(C(N)=O)c1	u	-5	-3%	0.9	0.0	7.2	1	-3
CCCCc1nc(Cl)c(C#N)c2c1CCCC2	u	-9	7%	-1.0	-0.4	1.5	1	-7
COc1cc(NC(=O)CN(C)S(=O)(=O)c2ccc3c(c2)CC(C)N3C(C)=O)cc(OC)c1 (stereo not given)	4.2	7	x	1.8	x	x	x	5
Cc1ccc(C(=O)CC2SC(N)=NC2=O)cc1 (stereo not given)	-3.4	-19	-3%	7.7	-0.8	2.9	-2	-10
CC(=O)Nc1c(C(=O)N2CCOCC2)cnn1-c1ccc(C)c(C)c1	-3.8	5	26%	x	0.6	4.7	-1	-4
CCOC(=O)CSc1nc2cc(C(=O)NCC3CCCO3)ccc2c(=O)n1Cc1ccco1 (stereo not given)	-0.8	-15	-2%	x	-1.2	2.4	-6	5
CCOc1cc(C(=O)Nc2cccc3ncccc23)cc(OCC)c1OCC	-0.8	u	24%	1.1	x	x	x	11
CCC(=O)N(Cc1cc(=O)[nH]c2ccccc12)c1ccc(C)cc1C	-0.2	17	-4%	-2.0	0.3	4.5	3	-3
CC1=CCC(/C=N\Nc2nnc3c(n2)[nH]c2ccccc23)CC1 (stereo not given)	5.4	-18	>100µM*	x	-1.2	2.7	3	-5
O=C(COC(=O)/C=C/c1cccc(C(F)(F)F)c1)NC(c1ccccc1)c1ccccc1	-2.3	0	15%	x	-0.5	-1.2	1	1

The list continues:
SMILES	RanGTP-Impb inh	Calb FLC	Vif TR-FRET	MLL AF4-AF9 inh	Bfl-1 A1 inh	LANA-H2A inh	Beta cell apopt	T cruzi inh
c1ccc(-c2ccccc2OCCCN2CCOCC2)cc1	2.2	-13	4%	2.4	-0.2	2.6	-4	12
COc1ccc2c(c1)C(NS(=O)(=O)OCC(Cl)(Cl)Cl)CCC2 (stereo not given)	1.4	-14	x	0.5	0.5	2.9	5	1
NC(CC(=O)OC1CCCCC1)C(=O)OC1CCCCC1 (stereo not given)	-5.2	9	25%	x	-0.4	2.4	-3	-3
COc1ccc2[nH]c(C(=O)NCCCN3CCCC3=O)c(C)c2c1	1.2	8	x	-1.2	-1.0	5.0	x	-14
CC(C)Cn1c(/C=N/Nc2nc3ccccc3[nH]2)nc2ccccc21	1.1	4	x	7.1	x	x	x	46
Cc1ccccc1-c1n[nH]c(=S)n1C	-1.2	-20	-8%	-2.5	0.1	-0.1	-1	-1
O=S(=O)(NCC1CCCO1)c1ccc(S(=O)(=O)N2CCCC2)cc1 (stereo not given)	-0.3	11	6%	1.8	-0.2	1.0	-7	1
COc1ccc(CNC(=O)CCN2C(=O)c3ccccc3C2=O)cc1	0.1	-1	-11%	-2.3	0.5	-2.1	-2	-1
O=S(=O)(Nc1ccc(S(=O)(=O)N2CCCCC2)cc1)c1ccc(Br)s1	0.1	u	6%&-3%	x	0.7	4.8	-1	x
O=C(c1ccc(CS(=O)(=O)c2ccc(Br)cc2)o1)N1CCN(c2ccccn2)CC1	-3.3	-2	2%	2.9	0.6	8.0	3	8
COc1ccc(-c2csc(NC(=O)c3ccc(N4C(=O)CCC4=O)cc3)n2)cc1OC	9.5	-3	-41%	-0.8	1.0	1.5	-11	-19
CCOC(=O)N1CCN(C(=O)C2CCCN(S(=O)(=O)c3ccc(F)cc3)C2)CC1 (stereo not given)	5.5	0	9%	-2.0	-0.4	-4.1	-1	-14
O=C(NNC(=O)c1ccccc1Br)c1cccs1	-1.4	5	-5%	-2.8	-0.5	1.1	-3	-9
Cc1ccccc1C(=O)OCCN1CCOCC1	-1.6	-15	7%	x	-0.5	-2.6	-6	-6
C/C(N)=C(/C#N)C(=O)COC(=O)c1ccc(O)cc1	1.4	2	6%	2.3	-0.4	1.4	4	-24
COc1c(C)cc(C(=O)C2CCCN(C(=O)c3cc(C)n(C)n3)C2)cc1C (stereo not given)	-0.4	9	x	3.4	-5.0	-1.8	-6	4
O=C(NC1=NCCS1)c1ccc(Cl)c(S(=O)(=O)N2CCOCC2)c1	-3.6	3	x	-7.1	-1.5	-3.5	-8	-5
COc1ccc(Cc2nnc(NN)[nH]c2=O)cc1OC	-2.0	3	0%	0.8	0.7	-2.8	x	-3
O=C(Nc1ccccc1)Nc1cccc(Cl)c1Cl	-0.9	-77	3%	x	0.2	-2.9	14	-12
c1ccc(OCCCn2nnc(-c3ccc(N4CCOCC4)cc3)n2)cc1	-2.8	13	1%	-34	0.4	1.6	4	2
O[C@H]1c2ccccc2[C@H](Cc2cncs2)[C@@H]1Br	x	x	x	-5.9	0.3	2.0	-8	x
COc1ccc(Nc2ccc(Cl)cc2)c(C(=O)O)c1	u	20	11%	x	0.1	9.6	1	-26
Cc1c(NC(=O)c2cc3nc(-c4ccc(Cl)cc4)cc(C(F)(F)F)n3n2)c(=O)n(-c2ccccc2)n1C	-5.4	-14	10%	x	1.1	-4.7	5	7
O=S(=O)(c1ccc(Nc2ccc3c(c2)OCO3)nc1)N1CCOCC1	0.9	-24	15%	x	-0.1	3.2	3	8
Cc1nnc(Nc2ccc(Cl)cc2)n(N)c1=O	-1.7	2	0%	x	0.6	0.7	0	-10
